Screening data from PubChem.
RVFV N-RNA FP: inhibitors of RVFV nucleoprotein–RNA binding, primary screen, biochemical, fluorescence polarization | P21700 | RVFV N-RNA binding; active compounds read low | % bound, % (no concentration beside the values) | 20,000 tested, 0.1% active | AID 651828, 2012;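 active = between 0 and 58% in either replicate with normal brightness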;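 note: 100 nL library stock added to about 12 µL; 100% = protein and probe without compound and 0% = probe alone; numbers are from one replicate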
Target sequence (P21700 whole entry, looked up): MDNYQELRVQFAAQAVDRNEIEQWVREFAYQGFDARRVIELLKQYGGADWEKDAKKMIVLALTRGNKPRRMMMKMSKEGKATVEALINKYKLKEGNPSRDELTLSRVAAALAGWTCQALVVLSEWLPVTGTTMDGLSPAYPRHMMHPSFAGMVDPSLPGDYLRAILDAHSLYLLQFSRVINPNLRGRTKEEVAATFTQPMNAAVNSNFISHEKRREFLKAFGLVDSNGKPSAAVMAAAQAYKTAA
An asterisk follows results filed as active; & = joins results of further samples. These rows are one share of the data; rates above refer to the full screens.

SMILES	RVFV N-RNA FP
COc1ccc2nc3n[nH]c(C)c3c(NCCOCCO)c2c1	92.0
O=C1CCc2cc(Cl)ccc21	88.6
CN(C)c1ccc(CN2CCc3c([nH]c4ccccc34)C2)cc1	91.6
N/C(=N\OC(=O)c1ccsc1)c1ccc(Br)cc1	96.2
CCOC(=O)CN(C)Cc1ccc(Cl)c(Cl)c1	84.9
NC(=O)c1cccnc1	102.5&101.6
O=C(NCCc1ccccc1)c1ccoc1COc1ccccc1	109.7
CCOC(=O)Nc1nnc(Cc2cccc(Br)c2)s1	97.2
O=C(Nc1ccc(N2CCN(c3ccc(C(F)(F)F)cn3)CC2)nc1)Nc1ccccc1OC(F)(F)F	91.9
O=C(O)c1ccc2c3c1cccc3c(=O)n1c3ccccc3nc21	104.5
NN=C(N)N	103.2&101.5&96.6
O=c1oc2ccccc2c2nccnc12	95.6
O=C(Cc1ccc(-c2ccccc2)cc1)NN1CCOCC1	93.1
O=C(Nc1ccc(-c2ccc3nncn3n2)cc1)C1CCCC1	93.0
O=C(CSc1ccnc(=O)[nH]1)NCc1ccccc1	91.7
CN(C)/C=C(\C#N)C(=O)C1CC1	85.7
CCCCn1c(=O)c2c(ncn2CC(C)=O)n(CCCC)c1=O	92.6
O=C1c2ccccc2C(=O)N1SSN1C(=O)c2ccccc2C1=O	91.9
Cc1ccsc1C=Nc1ccc(O)cc1	84.7
CCN(C(=S)NC(=O)c1ccc(Br)o1)c1ccccc1	83.1

As a short view, part of the list above:
SMILES	RVFV N-RNA FP
NN=C(N)N	103.2&101.5&96.6
O=c1oc2ccccc2c2nccnc12	95.6
O=C(Cc1ccc(-c2ccccc2)cc1)NN1CCOCC1	93.1
O=C(Nc1ccc(-c2ccc3nncn3n2)cc1)C1CCCC1	93.0
O=C(CSc1ccnc(=O)[nH]1)NCc1ccccc1	91.7
CN(C)/C=C(\C#N)C(=O)C1CC1	85.7
CCCCn1c(=O)c2c(ncn2CC(C)=O)n(CCCC)c1=O	92.6
O=C1c2ccccc2C(=O)N1SSN1C(=O)c2ccccc2C1=O	91.9
Cc1ccsc1C=Nc1ccc(O)cc1	84.7
CCN(C(=S)NC(=O)c1ccc(Br)o1)c1ccccc1	83.1

Additional compounds
SMILES	RVFV N-RNA FP
CC(CN(C)C)CN1c2ccccc2CCc2ccccc21 (stereo unspecified)	93.8
CCCN1C(=O)CCS(=O)(=O)c2ccccc21	96.6
C#CCOC(=O)Nc1cnccc1C(F)(F)F	93.0
CSc1nc(-c2ccc(Cl)cc2)nc(N)c1C#N	98.3
COC(=O)c1ccccc1N(C)C(=O)c1cc2ccccc2oc1=O	92.6
C#CCn1c(=NC(=O)c2ccc(S(=O)(=O)N3CCCC3)cc2)sc2cc3c(cc21)OCO3	103.9
O=C(NC(Cc1ccccc1)C(=O)O)OCc1ccccc1 (stereo unspecified)	91.2
Cc1cc2c3c(c1)C1(C(=O)N3C(C)(C)CC2C)C(C#N)=C(N)Oc2cc(O)ccc21 (stereo unspecified)	93.6
Cc1ccc(SC(C)C(=O)O/N=C(\N)c2ccccn2)cc1 (stereo unspecified)	92.4
CCCn1c(=NC(=O)CS(=O)(=O)c2ccccc2)sc2cc(S(C)(=O)=O)ccc21	98.5
O=C(O)C1C2C=CC3(O2)C1C(=O)N1c2ccccc2C2OCCC2C13 (stereo unspecified)	90.8
COc1ccc(/C=c2\sc3nc4cc(Br)cnc4n3c2=O)cc1	103.6
O=C1NCc2c1c1c3ccccc3[nH]c1c1[nH]c3ccccc3c21	103.0
CCOC(=O)c1cc(-n2cccc2)ccc1N1CCCCC1	99.4
c1c2c(cc3sc(N4CCCC4)nc13)OCO2	97.0
COc1ccc(C(N)=CC(=O)OC(C)(C)C)cc1	95.1
O=C(COc1ccc2oc(-c3ccco3)cc(=O)c2c1)NCc1ccccc1	109.6
CC(=O)Nc1ccc(-c2nc3ncccc3o2)cc1C	97.4
CCOC(=O)/C(C#N)=C/Nc1nc2c(OC)cccc2s1	92.6
N#C/C(=C(/O)c1ccc(Br)s1)c1nc2ccccc2[nH]1	94.4
COC(=O)c1ccc(NS(=O)(=O)c2cc(Cl)ccc2OC)cc1	99.2
COC(=O)c1ccccc1NC(=O)C(C)N(c1ccccc1)S(C)(=O)=O (stereo unspecified)	95.3
Clc1ncnc2[nH]ncc12	102.7
N#CC1(C#N)C(c2ccc(Cl)c(Cl)c2)C1(C#N)C#N	85.1
CCS(=O)(=O)c1ccccc1C(=O)Nc1nc2c(s1)CCCC2	95.3
Cn1c(O)c(C=Nc2ccc(N3CCOCC3)c(Br)c2)c(=O)n(C)c1=S	89.4
CN(C)C(=O)N1CCN(Cc2ccc3c(c2)OCO3)CC1	92.3
CCOCC(=O)Nc1ccc(I)cc1	96.2
CCN1CCCC1CNC(=O)c1cc(S(N)(=O)=O)ccc1OC (stereo unspecified)	107.2
O=C1CC(NC23CC4CC(CC(C4)C2)C3)C(=O)N1Cc1ccc2c(c1)OCO2 (stereo unspecified)	97.6
Cc1ccc(C(CNC(=O)Nc2ccccc2)N2CCN(C)CC2)cc1 (stereo unspecified)	89.6
Cc1cc(C(=O)NCc2cc3ccccc3s2)nn1C	106.7
COC(=O)c1ccccc1NC(=S)N(C)C	91.9
Cc1cccc(C(=O)NCc2cn3cccc(C)c3n2)c1	98.5
Cc1cc(NC(=O)CCS(=O)(=O)c2nc(-c3ccccc3)cc(C(F)(F)F)n2)no1	92.1
O=S(=O)(NS(=O)(=O)c1ccccc1)c1ccccc1	94.0
C=CCOC(=O)c1ccc(NC(C)=O)cc1	87.2
Nc1nonc1C(=NCc1ccccc1)NO	96.3
O=C(c1ccccc1)c1ncc[nH]1	95.7
CCCc1cc(C(=O)OC)c(NC(=O)C2CCC2)s1	92.9
COc1ccc(S(=O)(=O)Nc2nc3ccccc3nc2NCC2CCCO2)cc1 (stereo unspecified)	93.6
C=CCNCc1ccc(OC)c(OC)c1	105.8
Oc1cccc2c(Cl)ccc(Cl)c12	88.8
Cc1ccc2c(c1)nc(NCCO)n2C	95.9
C#CCN1C(=O)S/C(=C/c2ccccc2)C1=O	101.0
O=C(NNc1ncccc1C(F)(F)F)c1cccc(C(F)(F)F)c1	91.2
Cc1cc(C(F)(F)F)n2nc(C(C)C)cc2n1	91.0
Cc1ccc(S(=O)(=O)N2CN(CC3CCCO3)c3nc4ccccc4nc32)cc1C (stereo unspecified)	93.1
CC(=O)Nc1cccc(OC(=O)N(C)C)c1	95.1
O=C(Cc1ccc(Br)cc1)NN1CCOCC1	103.0
O=C(NC1C=CS(=O)(=O)C1)c1sc2ccccc2c1Cl (stereo unspecified)	88.6
COc1ccc(O)c(/C=N/NC(=O)CSc2nnc(C)n2-c2ccccc2)c1	87.3
C=C(C)C(=O)Nc1cccnc1Oc1ccccc1F	102.6
C=CCN1C(=O)S/C(=C\c2cc(OC)ccc2OC)C1=O	88.0
O=S1(=O)Cc2snnc2-c2cc(Cl)ccc21	94.8
CCCCCCNC(=O)n1cc(F)c(=O)[nH]c1=O	95.5
O=C(Nc1ccc(Cl)cc1)NC(Cc1ccccc1)C(=O)O (stereo unspecified)	96.3
Cc1nc(NS(=O)(=O)c2ccccc2)sc1NC(=O)Nn1cnnc1	95.7
Cc1ccccc1/C=C(\C#N)C(=O)OC(C)(C)C	99.3
CCOC(=O)c1csc2ncc(C#N)c(=O)n12	95.7

(more compounds)
SMILES	RVFV N-RNA FP
CNC(=O)c1cc(I)c(OC)c(OC)c1	98.3
CNC(=S)N/N=C/c1c(C(=O)OC)cnn1-c1ccc(F)cc1F	88.4
Cc1ccc(C2(c3ccc(C)o3)CCCCC2)o1	102.2
COC(=O)c1cc(C)sc1NC(=S)Nc1cnn(C)c1C(N)=O	95.6
CCOc1cc(CO)cc(Cl)c1OCC(=O)Nc1ccccc1OC	100.5
Fc1ccc(NC(=S)N2CCN=C2Nc2ccc(F)cc2)cc1	94.3
COc1ccccc1NC(=O)Nc1nc(CC(=O)N2CCCC2)cs1	94.9
O=C(O)COCC(=O)Nc1nnc(C(F)(F)F)s1	108.9
Cc1cc(N2CC(=O)N(CCc3ccccc3)C(=O)C2)nc(-n2nc(C)cc2C)n1	94.2
O=C(Cn1cnc2c(cnn2CCO)c1=O)N1CCCc2ccccc21	96.8
Cc1occc1C(=O)Nc1cc(C(C)(C)C)on1	94.6
O=c1[nH]cnc2c1CN=N2	93.7
CCOc1cnn(C)c(=O)c1OCC	98.6
N#CC(C#N)=CNC1CCSC1 (stereo unspecified)	102.5
CC(C)CN1C(=O)S/C(=C\c2ccc(F)cc2)C1=O	90.6
CCOc1cc(N)c(Cl)cc1C(=O)NCC1CN(Cc2ccc(F)cc2)CCO1 (stereo unspecified)	96.8
CCOC(=O)C1CCN(CC(=O)Nc2ccc(C(F)(F)F)cc2Cl)CC1	94.6
O=C(Nc1ccc(S(=O)(=O)N2CCCCC2c2cccnc2)cc1)c1ccc2c(c1)OCO2 (stereo unspecified)	91.3
C=CCOc1cccc(C(=O)NCC)c1	102.5
CC1CC(=O)Nc2ccccc2S1 (stereo unspecified)	94.6
Cc1nc(SCC#N)c2c3c(sc2n1)CCCC3	103.1
O=C(Cc1ccccc1)N/N=C/c1ccccc1C(=O)O	94.1
C/C(=N\NC(=O)Cc1ccccc1)c1cccnc1	90.1
CC1(C)CC2CC(C)(CN2C(=O)c2cc3ncc(Br)cn3n2)C1 (stereo unspecified)	92.8
O=C(/C=C/c1ccccc1)NC(=S)Nc1ccc(-c2nc3ccccc3o2)c(O)c1	95.6
C=CCC1C=C(C)CC(CC=C)N1CC(O)C(F)(F)C(F)(F)C(F)(F)F (stereo unspecified)	89.7
O=C(Nc1ccn(Cc2ccccc2F)n1)Nc1ccc(F)cc1F	95.4
O=C1NC(=O)C(c2cn(CCCO)c3ncccc23)=C1c1cnccn1	98.2
Oc1oc(-c2ccccc2)nc1C=Nc1cccnc1	108.1
CCc1ccc(Oc2c(CC(=O)O)oc3cc(O)c(CC)cc3c2=O)cc1	98.3
CCCCc1nc(NCCO)c(C#N)c2c1CCCC2	94.8
CN(C(=S)Nc1ccc(OC(F)F)cc1)C1CCCCC1	99.3
CCCSc1nc(O)c(CC)c(=O)n1C(C)CC (stereo unspecified)	93.4
COc1cccc(C2CC(c3cccs3)=NN2C(=O)CSC2=NN3CCCC(=O)N=C3S2)c1OC (stereo unspecified)	98.9
COC(=O)c1cnc(SCc2c(Cl)cccc2Cl)n1C	95.4
CC(C)=CCOc1c2occc2cc2ccc(=O)oc12	101.1
O=C(CSc1ncccn1)N1CCN(c2ccccc2)CC1	103.7
CCc1nnsc1C(=O)Nc1sc2c(c1C(=O)NCC1CCCO1)CCCC2 (stereo unspecified)	97.3
CCN1C(=O)S/C(=C/c2ccc(N3CCCC3)c(F)c2)C1=O	79.4
O=C(O)CC(CC(=O)N1CCN(c2ncccn2)CC1)c1ccccc1 (stereo unspecified)	102.2

Shown as labelled records: entries from further up.
> O=C(Nc1ccn(Cc2ccccc2F)n1)Nc1ccc(F)cc1F
  RVFV N-RNA FP: 95.4

> COC(=O)c1ccccc1N(C)C(=O)c1cc2ccccc2oc1=O
  RVFV N-RNA FP: 92.6

> C#CCn1c(=NC(=O)c2ccc(S(=O)(=O)N3CCCC3)cc2)sc2cc3c(cc21)OCO3
  RVFV N-RNA FP: 103.9

Remaining list, next part:
SMILES	RVFV N-RNA FP
CN/C(=C/[N+](=O)[O-])NCCSCc1ccc(CN(C)C)o1	99.7
O=C1/C(=C/c2ccco2)SC(=S)N1CN1CCN(c2ccccc2)CC1	99.1
CC1=CC(C)=NC2=C(c3ccccc3)SC(=C3C(=O)c4ccccc4C3=O)N12	100.3
O=C1c2ccccc2C(=O)N1Cc1ccc(C2Nc3ccccc3-c3cccn32)o1 (stereo unspecified)	93.9
O=C(c1ccco1)N(Cc1ccccc1)c1nc2c(F)cc(F)cc2s1	100.1
O=C(Nc1ccccc1)Nc1ccc(I)cn1	94.8
Cc1cccc(NC(=O)c2ccccc2C(=O)O)c1	101.1
Cc1nccc(-c2cccc(NN=C(C#N)C#N)c2)n1	92.1
CC(C)(C)NC(=O)CSc1nnc(NC(=O)C2CC(=O)N(c3ccc(F)cc3)C2)s1 (stereo unspecified)	100.5
CCCCC(C#N)(Cn1cncn1)c1ccc(Cl)cc1 (stereo unspecified)	94.5
CNc1nc(N)c(C(=O)c2ccccc2)s1	94.3
COc1cc(NC(=O)N(C)C)cc(OC)c1OC	102.3
Cc1onc(-c2c(Cl)cccc2Cl)c1C(=O)N[C@@H]1C(=O)N2[C@@H]1SC(C)(C)[C@@H]2C(=O)O	94.0
CC1CCN(S(=O)(=O)c2ccc(C(=O)Nc3sccc3C(N)=O)cc2)CC1	98.7
CC(=O)NC1C(Oc2ccccc2)OC(CO)C(O)C1O (stereo unspecified)	92.7
CC(C)(O/N=C(\C(=O)N[C@@H]1C(=O)N2C(C(=O)[O-])=C(C[n+]3ccccc3)CS[C@H]12)c1csc(N)n1)C(=O)O	100.4
N#Cc1ccc(OCc2ccc(F)cc2)cc1	101.3
CCOC(=O)c1csc(-c2ccc(C(F)(F)F)cn2)n1	89.0
O=c1[nH]c(CSC2=NCCCN2)nc2ccccc12	102.1
CCC(C)NC(=S)Nc1ccccc1 (stereo unspecified)	107.0
Cn1c(=S)n(CN2CCOCC2)c2ccccc21	99.1
COC(=O)c1c(N)c(C#N)c(C)n1-c1ccccc1	92.8
CSc1ccccc1-c1nc(-c2ccccc2)no1	94.5
O=C(Cc1cccs1)NCCC1=CCCCC1	90.9
O=c1[nH]c2ccccc2c(=O)n1NS(=O)(=O)c1ccc2ccccc2c1	107.7
CN(C)CCN1C(c2ccccc2)=CC(=C2C(=O)N(C)C(=O)N(C)C2=O)C2=C1CCCC2	100.6
Cc1cccc(NC(=O)C(F)(F)F)c1C	84.1
Cc1ccc(-n2nc(C)cc2C)nn1	94.9
S=C(NCc1ccco1)N1CCN(c2cccc(Cl)c2)CC1	100.5
Cc1ccc2c(NC(=O)C(C)(C)C)cccc2n1	98.3
CC(SCc1ccccc1)C(=O)Nc1ccccc1 (stereo unspecified)	87.6
O=C(NCc1cccs1)c1cnn2cc(Br)cnc12	90.6
OCc1ccc(OCc2cccs2)cc1	97.1
CSc1nsc(SC)c1C(=O)NC(=O)N1CCOCC1	98.7
Clc1ccc(Nc2nc(Nc3cccc(Cl)c3)nc(N3CCOCC3)n2)cc1	88.0
CC(C)c1ccccc1NS(=O)(=O)N(C)C	116.0
